# MgrA-DNA mod – modulators of Staphylococcus aureus MgrA DNA binding; fluorescence polarization; inhibition, %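 (about 10 µg/mL by stock and volumes)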; 84,000 tested, 0.13% active; AID 602314;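 active = above 50% in either of two replicates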;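 also: 0% = protein plus DNA without compound and 100% = DNA alone without protein; higher means less MgrA bound to DNA so lower polarization; one replicate is shown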
# Sa helicase inh – S. aureus DNA helicase inhibition; purified S. aureus helicase, fluorescence unwinding assay; about half of the hits fall short of the stated cut; inhibition, %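 (tested at about 80 µM)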; 120,000 tested, 0.05% active; AID 485395;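 active = both duplicates at 50% or more, or one of them with a favoured structure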;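 also: 0% = mean of negative control wells and 100% = mean of positive control wells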
# Numbers without * were called inactive; . = no result given. Not all compounds are listed; rates above refer to the full screens.
# Values run as follows: MgrA-DNA mod	Sa helicase inh
NC(=O)CSCc1nc2ccccc2s1
→ .	-17.0
CCNS(=O)(=O)c1ccc(OC)c2ncccc12
→ -2.2	16.0
Cc1c2cnn(CC(=O)NCCCN3CCCC3=O)c(=O)c2c(C)n1Cc1ccc(F)cc1
→ .	-3.0
CN(C)C(=O)NC1CC(=O)N(c2ccc3c(c2)OCCO3)C1 (stereo unspecified)
→ .	13.0
COc1ccccc1NS(=O)(=O)c1cccc(C(F)(F)F)c1
→ 0.2	5.0
Cc1ccc(C2=NN(C(=O)CSc3nc(N)cc(N)n3)C(c3ccco3)C2)cc1 (stereo unspecified)
→ .	5.0
COc1ccc(OC)c(CNc2ccc3c(c2)CCC3)c1
→ -0.3	7.0
CC(CNCc1ccc2c(c1)OCO2)NCc1ccc2c(c1)OCO2 (stereo unspecified)
→ -0.6	16.0
O=C(O)c1ccc(-c2ccccc2)o1
→ -2.7	12.0
Cc1ccc2c(c1)CCCN2C(=S)Nc1c(C)cccc1C
→ 0.4	.
COc1cc2c3c(c1O)-c1c(cccc1OC)CC3[N+](C)(C)CC2 (stereo unspecified)
→ 2.6	3.0
NC(=O)NC(=O)/C=C/c1ccccc1O
→ .	-17.0
CC1=CC(=C2C(=O)c3ccccc3C2=O)C=C(C)N1C(C)C
→ .	26.0
O=C(CSc1nc2ccccc2o1)Nc1cccc(C(F)(F)F)c1
→ -2.4	.
Cc1cc(Br)ccc1SCC(=O)OCC(=O)NC1CC1
→ 0.6	14.0
S=C(Nc1ccc(Cl)cc1)NN1CCOCC1
→ .	2.0
CCOC(=O)c1cc(NC(=O)CC(C)(C)CC(=O)O)ccc1N1CCCCC1
→ -1.4	.
COc1ccc(N2CCN(CCN3CCCCC3)CC2)cc1
→ -5.2	4.0
N=P(N1CCOCC1)(N1CCOCC1)C12CC3CC(CC(C3)C1)C2
→ .	10.0
CC1CC(C)CN(C(=O)COC(=O)c2cc(Cl)cc(Cl)c2)C1 (stereo unspecified)
→ -3.0	12.0
CC(NC(=O)COc1ccc(C#N)cc1)C1CC2CCC1C2 (stereo unspecified)
→ -0.9	11.0
CCn1c2ccccc2c2cc(/C=C3\CCC(C4CCCC4)C3=O)ccc21 (stereo unspecified)
→ -0.8	13.0
Cc1ccc(-n2nc(CN3CCOCC3)c(-c3ccccc3)c2N)c(C)c1
→ 2.4	6.0
COc1ccc(OC)c(/C=N/NC(=O)Cc2nc3ccccc3[nH]2)c1
→ .	26.0
O=C1CCC(C(=O)NNc2c(F)c(F)cc(F)c2F)=NN1
→ .	-1.0
CN(CCOC(=O)c1cc(Cl)cc(Cl)c1)c1ccc(C#N)cn1
→ 0.3	.
CCN1C(=O)/C(=C(/C#N)C(=O)C(C)(C)C)c2ccccc21
→ .	10.0
O=C(NCc1ccccc1)c1noc2c1CCc1ccccc1-2
→ 4.5	11.0
CN(Cc1ccccc1)C(=O)COc1ccc(-n2ccnc2)cc1
→ .	0.0
O=C(O)c1ccccc1N(Cc1ccccc1)C(=O)COc1ccccc1
→ 0.3	-24.0
O=c1c2ccccc2n2c(=O)[nH]nc2n1Cc1ccc(F)cc1
→ 2.0	4.0
CC1CCC2(CC1)NC(=O)N(NC(=O)COC(=O)CCc1ccccc1)C2=O (stereo unspecified)
→ .	-7.0
c1ccc(-c2cnc(-c3cccs3)o2)cc1
→ .	14.0
COC(=O)/C(=C/c1c[nH]c2ccccc12)NC(C)=O
→ 0.4	10.0
O=C(O)c1cncc(Br)c1
→ -4.2	.
CC1CCc2sc(NC(=O)C3CC3)c(C#N)c2C1 (stereo unspecified)
→ .	1.0
O=C1C(Nc2ccccc2)=C(n2nnc3ccccc32)C(=O)c2ccccc21
→ .	13.0
O/N=C/c1cn(-c2ccccc2)nc1-c1cccs1
→ .	-6.0
CCOc1ccc(C(=O)Nc2ccc3c(c2)C(=O)N(C)C3=O)cc1
→ .	5.0
Nn1cnnc1SCc1ccccc1Oc1ccccc1
→ .	6.0
Cc1[nH]c2ccccc2c1C1=CCN(S(=O)(=O)c2ccccc2)CC1
→ -0.5	8.0
CC(C)C(=O)N1CCN(C2c3ccccc3CC2NS(=O)(=O)c2ccccc2)CC1 (stereo unspecified)
→ .	11.0
CCOc1ccccc1NC(=O)CSc1nc2nccnc2c(=O)n1Cc1ccc2c(c1)OCO2
→ 0.1	2.0
CCCC(=O)Nc1nc2c(s1)CC(C)CC2 (stereo unspecified)
→ .	4.0
O=C(Nc1cccc(C(F)(F)F)c1)Nc1nc2ccccc2[nH]1
→ .	0.0

# Complete entries as entered above. Values in the order: MgrA-DNA mod | Sa helicase inh
# Shown for CCOc1ccccc1NC(=O)CSc1nc2nccnc2c(=O)n1Cc1ccc2c(c1)OCO2 → 0.1 | 2.0
# Shown for CC1CCC2(CC1)NC(=O)N(NC(=O)COC(=O)CCc1ccccc1)C2=O (stereo unspecified) → . | -7.0
# Shown for Nn1cnnc1SCc1ccccc1Oc1ccccc1 → . | 6.0
# Shown for O=C(Nc1cccc(C(F)(F)F)c1)Nc1nc2ccccc2[nH]1 → . | 0.0
# Shown for CC1CCc2sc(NC(=O)C3CC3)c(C#N)c2C1 (stereo unspecified) → . | 1.0

# Quoted from the listing.
# CCOc1ccc(C(=O)Nc2ccc3c(c2)C(=O)N(C)C3=O)cc1 | Sa helicase inh: 5.0
# Nn1cnnc1SCc1ccccc1Oc1ccccc1 | Sa helicase inh: 6.0

# Next section:
# Values run as follows: MgrA-DNA mod	Sa helicase inh
COc1cccc(-c2nc(COC(=O)c3cc(C)on3)cs2)c1OC
→ .	14.0
CC(=O)Nc1ccc(NC(=O)C2(c3ccccc3)CCCC2)cc1
→ 0.6	-12.0
N#C/C(C(=O)N1CCCCC1)=C1/SC=C(c2ccccc2)N1c1ccccc1
→ 0.5	21.0
c1nc(N2CCCC2)c2[nH]cnc2n1
→ .	23.0
O=C1CC(C2CCCO2)C(=O)N1c1cccc(C(F)(F)F)c1 (stereo unspecified)
→ 1.3	1.0
Cc1ccc(CCNC(=O)Cn2ncc3c(=O)oc4ccc(C)cc4c32)cc1
→ .	10.0
CCCN(CCC)C(=O)CSc1nnc(-c2cc3sccc3n2C)n1-c1c(C)cc(C)cc1C
→ -0.9	0.0
Cc1ccc(NC(=S)NCc2cccnc2)c(C)c1
→ 0.1	.
CCc1cc2c(SC(C)C(N)=O)ncnc2s1 (stereo unspecified)
→ .	-7.0
Clc1ccc(NCc2ccccc2)cc1
→ -6.5	9.0
NS(=O)(=O)c1ccc(-c2ccc(/C=C3\C(=O)Nc4cc(Cl)ccc43)o2)cc1
→ .	-2.0
Clc1ccc(-c2cc3ccccc3[nH]2)cc1
→ -6.7	.
CCOc1ccc(C2C(C#N)=C(N)Oc3c2ccc(=O)c2c(C)oc(C)c32)cc1 (stereo unspecified)
→ 0.2	16.0
CCc1ccc(-c2nn(-c3cc(N4CCOCC4)ccc3[N+](=O)[O-])c(=O)c3ccccc23)cc1
→ 2.2	.
CCCCN(C)S(=O)(=O)c1ccc(NC(=O)c2ccncc2)cc1
→ .	0.0
Cc1csc(=Nc2cccnc2)n1CC1CCCCC1
→ .	11.0
CC(=O)N1c2c(cc(Br)cc2S(=O)(=O)CCC(=O)NC2CCCC2)CC1C (stereo unspecified)
→ .	2.0
CCCn1c(SCC(=O)Nc2cccc(CC)c2)nc2c(oc3ccccc32)c1=O
→ .	-4.0
O=C(Nc1ccccc1Cl)c1nc2c(nnn2Cc2ccc3c(c2)OCO3)c(=O)[nH]1
→ -1.2	14.0
CCN(C(=O)NC1(C(F)(F)F)Oc2ccc(Cl)cc2O1)C1CCCCC1 (stereo unspecified)
→ .	-9.0
C=CCN(CC(=O)Nc1ccc(C)cc1)c1ccccc1
→ .	11.0
Cc1ccc2oc(Nc3nc(-c4ccccc4)cc(=O)[nH]3)nc2c1
→ 7.9	10.0
Cc1ccc(OCc2c(F)cccc2Cl)c([N+](=O)[O-])n1
→ -1.8	.
Cc1cc(=O)c2c(o1)CC(C)(C)CC2=O
→ 0.8	4.0
CC(=O)N1CCC(NC(=O)Oc2ccc(Cl)cc2)CC1
→ -1.2	.
Cn1/c(=N\N=C2CCCCC2)sc2ccccc21
→ .	1.0
COc1ccc(NC(C)=O)c(-c2nc3cc4ccccc4cc3n(Cc3ccccc3)c2=O)c1
→ -2.8	.
COc1cccc(C(C(=O)NCc2ccco2)N(C(=O)Cn2nnc3ccccc32)C2CC2)c1OC (stereo unspecified)
→ 3.5	-2.0
Cc1cc(C(=O)CSC(=S)N(C)C)c(C)n1-c1nccs1
→ .	15.0
CC(=O)N1CCC(=NNc2nc3ccccc3s2)CC1
→ .	-10.0
CCC(=O)N(c1nnc(-c2cc(OC)c(OC)c(OC)c2)s1)C1CCCC1
→ -2.7	11.0
CC(C)(C)NNC(=S)Nc1cc(Cl)ccc1Cl
→ -0.5	.
CCOC(=O)N1CCN=C1SCc1ccc(C(F)(F)F)cc1
→ .	1.0
COc1ccc(CC(=O)n2nc(-c3ccc(Cl)cc3)nc2NCc2ccco2)cc1OC
→ 0.3	11.0
O=C(Nc1scc2c1c(=O)oc1ccccc12)c1ccccc1
→ -1.0	.
CCN(CC)CCNc1ncnc2c1cnn2-c1ccccc1
→ .	-18.0
Cc1ccc(Cn2ccc(NC(=O)C3C4CCC(C4)C3C(=O)O)n2)cc1 (stereo unspecified)
→ .	15.0
CCC1CCCCN1C(=O)COC(=O)C1=COCCO1 (stereo unspecified)
→ .	6.0
O=C(NCC1CCCO1)c1ccc(N2CCCCS2(=O)=O)cc1 (stereo unspecified)
→ .	-6.0
CCN1C(=O)/C(=C2\SC(=S)N(c3ccc(OC)cc3)C2=O)c2ccccc21
→ 0.3	12.0
CC(C)Cn1cc(NC(=O)N2C(C)CCCC2C)c2ccccc2c1=O (stereo unspecified)
→ .	22.0
Cn1c(N)c(C(=O)c2cccc(S(=O)(=O)N3CCc4ccccc43)c2)c(=O)[nH]c1=O
→ .	1.0
COc1cc2ncnc(NC(C)c3ccccc3)c2cc1OC (stereo unspecified)
→ .	-9.0
CSC(=Nc1ccc(C)c(C)c1)NC#N
→ -0.7	4.0
Cc1ccc(N2C(=O)c3n[nH]c(C)c3C2c2ccccc2)cc1 (stereo unspecified)
→ .	-35.0
C=CCC1CC=CC(C)N1C(=O)OCc1ccccc1 (stereo unspecified)
→ .	-6.0
N=c1n(CCCOc2ccccc2)c2ccccc2n1CC(N)=O
→ .	29.0
O=C(O)C1C2CCC(O2)C1C(=O)Nc1cnn(Cc2ccccc2)c1 (stereo unspecified)
→ .	8.0
Cc1nc2ccn(Cc3ccccc3)c(=O)c2cc1C(=O)N1CCN(c2ccccc2)CC1
→ .	-2.0
O=C(OCC(=O)N1CCCCCC1)c1ccc2[nH]c3c(c2c1)CCCC3
→ .	14.0
COc1ccc(C(=O)N2CCC(C(=O)Nc3ccc(C)cc3)CC2)cc1
→ .	6.0
CC(C)Oc1ccc(CNCC2(O)CCOC(C)(C)C2)cc1 (stereo unspecified)
→ .	-5.0
CN(CC(=O)NCc1ccccc1)S(=O)(=O)c1ccc2c(c1)c(=O)n(C)c(=O)n2C
→ 1.0	18.0
CCN1C(=O)c2ccc(C(=O)Nc3cc(OC)c(OC)cc3C(=O)O)cc2C1=O
→ .	5.0
Cc1ccc(-c2cn3c4c(sc3n2)CCCC4)cc1
→ 4.5	8.0
O=C1c2ccccc2CN1CCSC(=S)N1CCSCC1
→ 2.0	6.0
CC(C)(C)CNC(=O)c1ccccc1O
→ 0.5	6.0
COC(CN(C)C(=O)c1ccc2c(c1)N(Cc1ccc(Cl)cc1)C(=O)c1ccccc1S2=O)OC (stereo unspecified)
→ .	27.0
CCc1ccccc1NC1c2ccccc2C(=O)N1Cc1ccco1 (stereo unspecified)
→ .	-22.0
COc1ccc(-c2csc3ncnc(Cl)c23)cc1
→ .	4.0

# The list goes on:
# Values run as follows: MgrA-DNA mod	Sa helicase inh
O=C(Nc1cccc(NC(=O)c2c(F)cccc2F)n1)c1c(F)cccc1F
→ 0.8	.
CSc1sc(C#N)c(C)c1C(C)=O
→ -1.2	.
COc1ccc(C)cc1NC(=O)COC(=O)c1c(C)noc1C
→ .	9.0
Cc1ccc(NC(=O)Cn2c(=O)c(C)nc3ccccc32)cc1
→ -1.1	-44.0
Cc1ccc(OCC(=O)Nc2ccccc2C(N)=O)cc1
→ -1.2	-3.0
N#CCC(=O)N1CCNCC1
→ .	-7.0
O=c1ncn(-c2cccc(Cl)n2)[nH]1
→ -2.2	.
Clc1ccc(-c2csnn2)cc1
→ 2.2	.
CCCn1c(/N=C/c2c[nH]c3ccccc23)nc2ccccc21
→ -0.3	-15.0
CNC(=S)N/N=C1\CCOc2ccc3ccccc3c21
→ .	16.0
CCCN(CCC)S(=O)(=O)c1ccc(C(=O)Nc2cccc3c2C(=O)c2ccccc2C3=O)cc1
→ 2.9	.
N#CCC(=O)NCc1ccccc1
→ -0.2	-7.0
COc1ccc(Nc2nc3ccccc3c(=O)s2)cc1
→ 0.8	8.0
CCCCn1c(N)c(N(Cc2ccco2)C(=O)Cc2coc3cc(OC)ccc23)c(=O)[nH]c1=O
→ .	-1.0
COC(=O)c1ccc(COC(=O)c2cccc(S(=O)(=O)NCc3ccccc3)c2)o1
→ .	-3.0
COc1ccccc1NC(=O)Cc1noc(CSc2nc3sc(C)c(C)c3c(=O)n2C(C)C)n1
→ .	-2.0
COC(=O)CSc1nnc(CNC(=O)Cc2ccccc2)n1-c1ccc(OC)cc1
→ .	-12.0
C1CN=C(NCC2CCCO2)C1 (stereo unspecified)
→ .	-7.0
CN(C)c1ccc(C2CC(c3ccccc3)=NN2C(=O)c2ccc(F)cc2)cc1[N+](=O)[O-] (stereo unspecified)
→ -0.2	.
c1csc(CN2CCCCCC2)c1
→ -1.8	.
CN1CCN(S(=O)(=O)c2ccc(SCC(=O)NC3C4CC5CC(C4)CC3C5)nc2)CC1 (stereo unspecified)
→ .	1.0
CCN(C(=O)c1cc2ccccc2o1)c1nc2c(C)cccc2s1
→ .	-4.0
